Arbovirus anti: blocks arbovirus infection | arbovirus infection cell-based antiviral screen | inhibition, % at 10 µM | 0.37% of 200,000 active | AID 1251;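 active means inhibition from about 30%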;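 further: bluetongue infection of BSR cells; cell survival read as ATP light after 72 h; 0% = infected wells without compound and 100% = uninfected wells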
Mtb growth: M. tuberculosis H37Rv growth inhibitors, H37Rv strain (AID 1626) | M. tuberculosis H37Rv growth inhibition; higher % means a stronger effect | inhibition, % at 10 µM, or IC50 in µM where a hit was titrated | 0.95% of 220,000 active;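 active means confirmed in a dose series; inconclusive means inhibition above 80% but not taken into the dose series; inactive means below 80% or under 30% at every dose of the series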;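 further: bacteria incubated seven days before Alamar blue readout; 0% = bacteria only wells and 100% = bacteria with antibiotic wells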
Mtb bLac sens: beta-lactam sensitization of Mtb H37Rv; M. tuberculosis H37Rv growth with meropenem, percent inhibition; hits of this screen are not shown here; inhibition, % at 25 µM; 0.27% of 330,000 active; AID 434955;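 active means about 74% or more and at least 40 points above the plate without the antibiotic, then above 30% in a dose series; inconclusive means first-round hits that could not be retested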;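 further: growth measured after seven days incubation then overnight dye step; 0% = bacteria only wells and 100% = bacteria with antibiotic; twin plates without the antibiotic show which effects depend on it; some results filed as inactive read as strong as hits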
YopH inh: YopH (Yersinia) phosphatase inhibition; fluorescence Ex485/Em525; inhibition, %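 (about 10 µM by stock and volumes)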; 0.16% of 140,000 active; AID 898;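 active means inhibition of 50% or more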;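 further: controls were vehicle for no effect and minimum signal wells for full effect; inactives centre near -20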
RecA splice inh: inhibitors of M. tuberculosis RecA intein splicing; P9WHJ3; cell-free RecA intein splicing, fluorescence; inhibition, %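 (about 9 µM by stock and volumes)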; 0.75% of 290,000 active; in the data active means inhibition above about 30%; inconclusive means no clear call, values can overlap the other calls;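 further: 0% = vehicle wells and 100% = reference inhibitor control wells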
Target sequence (P9WHJ3 whole entry, looked up, canonical isoform): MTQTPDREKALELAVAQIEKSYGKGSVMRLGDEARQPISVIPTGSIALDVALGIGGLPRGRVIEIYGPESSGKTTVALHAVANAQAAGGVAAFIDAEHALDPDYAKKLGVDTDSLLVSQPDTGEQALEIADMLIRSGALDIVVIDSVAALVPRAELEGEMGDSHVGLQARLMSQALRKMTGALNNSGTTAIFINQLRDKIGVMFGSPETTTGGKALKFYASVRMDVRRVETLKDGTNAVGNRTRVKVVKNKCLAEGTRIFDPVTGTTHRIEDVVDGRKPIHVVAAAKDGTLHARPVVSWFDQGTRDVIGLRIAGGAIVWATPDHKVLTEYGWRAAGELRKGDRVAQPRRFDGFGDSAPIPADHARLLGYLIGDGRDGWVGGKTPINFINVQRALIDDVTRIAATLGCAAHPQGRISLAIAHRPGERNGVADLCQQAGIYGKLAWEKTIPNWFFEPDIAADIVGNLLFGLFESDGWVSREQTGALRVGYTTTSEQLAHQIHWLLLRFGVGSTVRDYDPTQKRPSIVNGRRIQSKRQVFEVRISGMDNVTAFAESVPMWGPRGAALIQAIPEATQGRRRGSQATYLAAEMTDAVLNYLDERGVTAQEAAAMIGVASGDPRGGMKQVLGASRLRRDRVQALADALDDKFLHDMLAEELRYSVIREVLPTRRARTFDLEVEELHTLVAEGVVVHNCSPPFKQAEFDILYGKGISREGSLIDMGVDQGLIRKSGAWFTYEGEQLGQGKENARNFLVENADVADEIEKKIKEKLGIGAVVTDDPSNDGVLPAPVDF
Arbovirus anti repeat: further read-out of Arbovirus anti, marked with its call; inhibition, %; measured here: 10K subset replicate screen; many hits read low in the repeat;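 first of two repeat runs on a subset; 0% = infected and 100% = uninfected wells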
* hit, by the source's call; ? = inconclusive; nt = not tested or not shown. The list is partial (hit frequency here may not be typical).

SMILES	Arbovirus anti	Mtb growth	Mtb bLac sens	YopH inh	RecA splice inh	others
CC1CCCCC1NS(=O)(=O)c1ccc2c(c1)CC(=O)N2C (stereo not drawn)	nt	nt	7	nt	-1.9
O=S(=O)(c1cnc(Cl)c(Cl)c1)N1CCc2ccccc21	nt	5%	-5	nt	7.7
O=C(NCc1ccccn1)c1cc2c(ccc3ccccc32)oc1=O	-5	-3%	-5	nt	-272
O=S(=O)(c1ccccc1)N1CCN=C1SCc1ccc(Cl)cc1	1	nt	-2	nt	-1.1
CCC(=O)N(Cc1cc2cc(OC)ccc2[nH]c1=O)c1ccccc1C	10	-4%	3	-49	-3.9
CCCCC1=CC2=CC(=O)C(C)(OC(=O)CCc3ccccc3)C(=O)C2=CO1 (stereo not drawn)	nt	-3%	5	nt	-3.7
CCOc1ccc(OCCOCCOc2c(Cl)cccc2Cl)cc1	nt	14%	-1	2	6.3
CCOc1ccc(C2CC(=O)NC(SCC(=O)OC)=C2C#N)cc1 (stereo not drawn)	3	-7%	-2	-1	1.1	Arbovirus anti repeat=1
CC(C)(C)c1ccc(-c2nc3cc(N)ccc3o2)cc1	nt	nt	97	nt	-6.1
COc1cc(/C=C2\SC(N3CCCCC3)=NC2=O)cc(OC)c1OC	nt	nt	7	nt	0.3
COc1ccc(C(=O)COC(=O)c2ccc(Cl)nc2)c(OC)c1	nt	nt	70	nt	0.7
CC(C)N(C(=O)Cn1cc(SCC(=O)N2CCCC2)c2ccccc21)C(C)C	5	5%	5	nt	0.3
COc1ccc(CCN=C(N)NS(=O)(=O)c2ccc(OC)c(OC)c2)cc1OC	nt	nt	?	nt	-0.6
CC(=O)Nc1ccc(S(=O)(=O)Oc2cccc(/C=N/N=C3/NC(=O)C(CC(=O)O)S3)c2)cc1 (stereo not drawn)	4	-1%	-3	nt	0.7
CCN(c1ccccc1)c1cc(C)nc2ncnn12	3	-13%	-2	-9	-1.5	Arbovirus anti repeat=0
O=c1cccc2n1C[C@@H]1C[C@@H]2CN(CC(O)c2ccc([N+](=O)[O-])cc2)C1 (stereo partly drawn)	nt	nt	3	nt	1.4
c1cn(CCCNc2ncnc3sc4c(c23)CCC4)cn1	0	-10%	-13	-11	0.4
CC(C)c1ccc(NC(=O)Cn2c(=O)oc3cccnc32)cc1	nt	-8%	1	nt	-4.5
COC(=O)[C@@]12CCCN1[C@H](c1ccc(-c3ccc(F)cc3)c(OC)c1)[C@H]1C(=O)N(C)C(=O)[C@H]12	nt	nt	-5	nt	2.0
Cc1csc2nc(CNC(=O)c3cccc(C(F)(F)F)c3)cn12	7	-8%	-1	-18	-2.1
O=C(CNC1CCCC1)Nc1cc(Cl)ccc1[N+](=O)[O-]	nt	7%	-3	nt	1.6
COc1ccc(CCNC(=O)c2nnn(CC(=O)Nc3cccc(F)c3)c2N)cc1OC	1	-4%	-1	nt	3.5
COc1ccc(OC)c(Nc2nc3nonc3nc2N2CCCC(C)C2)c1 (stereo not drawn)	0	1%	-8	-22	-1.4
CCCCOc1ccc(CSc2nnc(C)n2N)cc1[N+](=O)[O-]	4	-5%	-12	nt	0.2
Cc1nc(NNC(=O)c2ccc([N+](=O)[O-])cc2)cc(-c2ccccc2)n1	5	nt	1	-17	-2.6
O=C1/C(=C/c2ccco2)SC(=S)N1CCC(=O)N1CCCCC1CCO (stereo not drawn)	nt	nt	-3	nt	12
c1ccc(-c2nc3c4ccccc4ccn3c2CN2CCCCC2)cc1	nt	nt	11	nt	0.8
COc1ccc(NC(=O)C2CC(=O)n3ncnc3N2)cc1 (stereo not drawn)	4	-12%	-1	6	-0.3
CCN(CC(=O)Nc1ccc(NC(C)=O)cc1)C(=O)c1ccc2c(c1)S(=O)(=O)N=C1CCCCCN12	nt	nt	-9	nt	0.6
CCOC(=O)c1[nH]c2ccc(OC)cc2c1NS(=O)(=O)c1ccc(Cl)s1	14	-1%	4	-26	5.5
COCCN1Cc2cccc(C(=O)Nc3cccc(C)c3C)c2C1=O	-7	-7%	12	-44	-1.4
CC(c1ccco1)N(C(=O)COc1ccccc1[N+](=O)[O-])c1ccccn1 (stereo not drawn)	-1	-7%	-15	-40	1.1
O=C(NN1CCOCC1)C12CC3CC(CC(C3)C1)C2	4	-5%	2	-28	2.1
COc1ccc2cc(C(N)=O)/c(=N\NC(=O)c3ccccc3)oc2c1	nt	nt	-1	nt	-17
O=C(c1ccc(S(=O)(=O)N2CCCCCC2)cc1)N1CCN(c2ccccn2)CC1	-3	-1%	0	-21	-1.4
O=C(Nc1nnc(Cc2ccc(Cl)cc2)s1)c1cccnc1	-23	-7%	2	nt	-3.2
CN1C(=O)C2(Oc3ccccc3C3CC(c4ccccc4)=NN32)c2ccccc21 (stereo not drawn)	8	3%	2	-21	-0.8
CCc1cc(=O)oc2c(C)c(OC(C)C(=O)NCCCn3ccnc3)ccc12 (stereo not drawn)	nt	nt	0	nt	-2.6
N#C/C(=C\C=C\c1ccccc1[N+](=O)[O-])c1nc(-c2ccc3c(c2)OCO3)cs1	-5	12%	5	11	1.1
COc1ccc(Cc2nnc(SCC(=O)c3ccccc3)o2)cc1	-8	5%	35	-7	2.0
Cc1ccc(S(=O)(=O)NC(CC(C)C)C(=O)Oc2ccc3c4c(c(=O)oc3c2)CCC4)cc1 (stereo not drawn)	6	24%	87	-19	17
COc1ccc(C(=O)OCCNC(=O)c2c(Cl)nc3ccccn23)cc1	3	5.1µM*	79	-36	3.3
C=C(C)Cc1c(C)nc(-c2ccccc2)[nH]c1=O	7	-3%	-3	-36	nt	Arbovirus anti repeat=-4
CCc1ccc2c(c1)C1(SC(NC(C)=O)=NN1C(C)=O)C(=O)N2C(C)C (stereo not drawn)	9	-10%	2	-47	0.7
Cn1c(N)c(C(=O)COC(=O)C2(c3ccc(Cl)cc3)CCCC2)c(=O)n(C)c1=O	5	8%	11	-14	-0.6
O=[N+]([O-])c1cccc(-c2ccc3nnc(SCc4ccccn4)n3n2)c1	-2	-7%	-4	nt	-0.1
Cc1ccc(NC(=O)CN(C)S(=O)(=O)c2ccc3c(c2)c(=O)n(C)c(=O)n3C)cc1	nt	nt	-2	nt	-0.2
Cc1ccc(S(=O)(=O)Nc2ccc3c(c2)ncn3C(C)(C)C)cc1	7	-8%	0	-25	2.8
Cc1nc(-c2ccc(F)cc2)c(CC(=O)Nc2cc(S(=O)(=O)N3CCCCC3)ccc2C)s1	nt	nt	7	nt	4.2
CC1=CC(=O)C=CC1(C)C(Cl)(Cl)Cl (stereo not drawn)	7	6%	0	-33	-0.7
CC1=C(C(=O)OCc2ccccc2)C(c2cccc([N+](=O)[O-])c2)NC(=O)N1C (stereo not drawn)	nt	nt	-13	nt	2.4
O=C(CN1CCN(S(=O)(=O)c2ccccc2)CC1)NC(=O)NCc1ccco1	nt	-6%	-1	nt	-0.2
Cc1cccc(OCC(=O)N(Cc2ccc(N(C)C)cc2)C2CCS(=O)(=O)C2)c1 (stereo not drawn)	nt	-2%	-9	nt	-0.3
O=C(c1cccnc1)N1N=C(C2CCCCC2)CC1(O)C(F)(F)F (stereo not drawn)	0	1%	-2	nt	-0.1
O=C(NC1CCCCC1)C(c1ccc(F)cc1)N(Cc1ccc2c(c1)OCO2)C(=O)c1cnsn1 (stereo not drawn)	6	-2%	0	-19	-1.8
COC(=O)c1cc(Br)c(=O)n(-c2ccc(F)cc2)c1	5	1%	-11	-6	0.2
O=C(NCC(=O)N1CC(O)CC1C(=O)N1CCCC1C(=O)OCc1ccccc1)OCc1ccccc1 (stereo not drawn)	20	0%	-1	nt	-1.0
CC(C)NC(=O)C1CCN(C(=O)c2cc3sccc3n2Cc2ccc(F)cc2)CC1	9	-14%	-2	0	-2.0
Cc1ccc(OCC(=O)NCCNC(=O)c2cnccn2)cc1	nt	nt	-3	nt	1.1
O=C(CCNC(=O)c1ccccc1Cl)Nc1nnc(C2CC2)s1	11	-3%	-12	nt	-1.3

Random excerpt: 6 records from the list
SMILES	Arbovirus anti	Mtb growth	Mtb bLac sens	YopH inh	RecA splice inh	others
Cc1nc(-c2ccc(F)cc2)c(CC(=O)Nc2cc(S(=O)(=O)N3CCCCC3)ccc2C)s1	nt	nt	7	nt	4.2
O=C(CN1CCN(S(=O)(=O)c2ccccc2)CC1)NC(=O)NCc1ccco1	nt	-6%	-1	nt	-0.2
O=C(CCNC(=O)c1ccccc1Cl)Nc1nnc(C2CC2)s1	11	-3%	-12	nt	-1.3
CC1=C(C(=O)OCc2ccccc2)C(c2cccc([N+](=O)[O-])c2)NC(=O)N1C (stereo not drawn)	nt	nt	-13	nt	2.4
Cn1c(N)c(C(=O)COC(=O)C2(c3ccc(Cl)cc3)CCCC2)c(=O)n(C)c1=O	5	8%	11	-14	-0.6
CCc1ccc2c(c1)C1(SC(NC(C)=O)=NN1C(C)=O)C(=O)N2C(C)C (stereo not drawn)	9	-10%	2	-47	0.7

(more compounds)
SMILES	Arbovirus anti	Mtb growth	Mtb bLac sens	YopH inh	RecA splice inh	others
CC(C)(C)c1nnc2sc(SCC(=O)c3ccccc3)nn2c1=O	9	-2%	10	-21	1.1
COc1ccccc1S(=O)(=O)Cc1ccc(C(=O)NCCCN2CCN(c3ccc(F)cc3)CC2)o1	nt	nt	2	nt	0.0
CCN(Cc1ccccc1)C(=O)C(=O)c1cn(CC(=O)N2CCCC2)c2ccccc12	nt	nt	-13	nt	-1.2
CCn1nnnc1SCC(=O)c1cc(OC)ccc1OC	11	-3%	-1	-33	-2.6
C[C@H](NC(=O)c1ccc2ccccc2c1)C(=O)N1CCC2(CC1)NCCc1[nH]cnc12	nt	nt	4	nt	-2.1
Cn1c(O)c(N=Nc2ccc(F)cc2)c2ccccc21	-2	-5%	4	nt	-0.5
CCOc1cc(/C=N/O)ccc1OCc1ccccc1F	-9	1%	16	-18	2.2
S=c1[nH]nc(COc2ccc(Cl)cc2)n1Cc1ccccc1	4	3%	5	nt	-0.9
O=C(O)CCN(Cc1ccccc1)S(=O)(=O)c1c(Cl)cccc1Cl	6	-4%	-5	nt	2.9
CC(C)(C)NC(=S)N/N=C/c1cccnc1	nt	2%	-9	nt	-1.3
Cc1ccc(S(=O)(=O)NCCc2nnc3ccc(SCC(=O)Nc4nc(C)cs4)nn23)cc1	2	2%	7	-20	-4.1
O=C(CCl)Nc1cccc2ncccc12	24	3%	91	-20	11
O=C(c1ccc2c(c1)N(Cc1ccc(F)cc1)CCS2)N1CCOCC1	nt	nt	-7	nt	0.1
Cc1nnc(NC(=O)COc2ccccc2)s1	7	-9%	7	-35	-2.6
NC(=O)CC(NC(=O)c1ccccc1)c1ccc(N2CCC(Cc3ccccc3)CC2)c([N+](=O)[O-])c1 (stereo not drawn)	nt	nt	-4	nt	0.9

Sorted by count of non-hydrogen atoms (smallest number first): part of the list above.
SMILES	Arbovirus anti	Mtb growth	Mtb bLac sens	YopH inh	RecA splice inh	others
CCOc1cc(/C=N/O)ccc1OCc1ccccc1F	-9	1%	16	-18	2.2
C[C@H](NC(=O)c1ccc2ccccc2c1)C(=O)N1CCC2(CC1)NCCc1[nH]cnc12	nt	nt	4	nt	-2.1
NC(=O)CC(NC(=O)c1ccccc1)c1ccc(N2CCC(Cc3ccccc3)CC2)c([N+](=O)[O-])c1 (stereo not drawn)	nt	nt	-4	nt	0.9

High-throughput results: PubChem BioAssay, several laboratories
